Rango release inh: prevents RanGTP from dissociating the Rango-importin beta complex. O95149+P62826. Biochemical FRET Rango-importin beta, RanGTP-induced dissociation. Potency, µM (top dose mostly 46.1 µM), for inactives: at the top dose activity change, negative = inhibition. hit rate 0.071% among 340,000. AID 540253; active means falling FRET ratio curve, often poorly fitted, with flat reads before Ran was added; inconclusive means other falling curves, or compound fluorescence or quenching; inactive means flat or rising ratio curve;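 also: potency is read from the fitted curve at half-maximal effect; % of control where 0% means no effect; nearly all actives have a fitted effect of over 45% in size; -100% = wells without RanGTP and RCC1; the record marks most hits as doubtful in a second field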
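Two FRET readings bracket the reaction: one 5 min after compound meets Rango–importin beta, another 45 min after RanGTP-RCC1 (0.6 uM Ran, 0.2 uM RCC1, 2 mM GTP) is added. Only the second defines inhibition.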
miR-21 FLuc: raises the signal of a miR-21 reporter; Potency, µM (doses to about 38.3 µM), without a hit: at the top dose reporter change, positive = more light; HeLa miR-21 FLuc reporter, luciferase, 48 h; 340,000 tested, under 10 active; AID 2288; active = well fitted rising curve with a large enough effect; inconclusive = small, poorly fitted or top-dose-only effect; inactive = no such curve, though single readings can be large or run the other way;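 also: % of control where 0% means no effect; miR-21 action dims this reporter so a rising signal means less miR-21 action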
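Compounds were titrated across several concentrations (up to approximately 40 uM) and incubated 48 hours with HeLa miR-21-FLuc reporter cells (miR-21 target sequence downstream of FLuc, endogenous miR-21). Readout was firefly luciferase luminescence after lytic detection reagent.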
GLA inh pH 4.5: blocks human alpha-galactosidase A at pH 4.5. P06280. purified enzyme, 4-MU-alpha-Gal fluorescence, pH 4.5. activity change, negative = inhibition, % at 105 µM. 230,000 tested, under 10 active. AID 1467; inconclusive = small, poorly fitted or top-dose-only inhibition, or a rising curve; inactive = flat fitted curve, though single readings scatter; no compound was filed as active;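 also: 0% = full activity with enzyme and -100% = basal without enzyme; dose as in the result columns while the protocol names 77 µM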
Rango-impB inh: inhibitors of Rango-importin beta complex formation; Q14974; Rango CFP/YFP FRET sensor + importin beta, 45 min; Potency, µM (top dose mostly 92.2 µM), inactives show top-dose inhibition of complex formation; hit rate 0.031% among 340,000; AID 540263; active = rising FRET ratio curve, often small or poorly fitted; inconclusive = mostly compound fluorescence or quenching in the first reads; inactive = flat curves in all reads;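 also: potency is read from the fitted curve at half-maximal effect; 0% = DMSO wells and 100% = buffer wells lacking importin beta; nearly all actives have a fitted effect of over 15% in size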
Target sequence (Q14974 whole entry, looked up): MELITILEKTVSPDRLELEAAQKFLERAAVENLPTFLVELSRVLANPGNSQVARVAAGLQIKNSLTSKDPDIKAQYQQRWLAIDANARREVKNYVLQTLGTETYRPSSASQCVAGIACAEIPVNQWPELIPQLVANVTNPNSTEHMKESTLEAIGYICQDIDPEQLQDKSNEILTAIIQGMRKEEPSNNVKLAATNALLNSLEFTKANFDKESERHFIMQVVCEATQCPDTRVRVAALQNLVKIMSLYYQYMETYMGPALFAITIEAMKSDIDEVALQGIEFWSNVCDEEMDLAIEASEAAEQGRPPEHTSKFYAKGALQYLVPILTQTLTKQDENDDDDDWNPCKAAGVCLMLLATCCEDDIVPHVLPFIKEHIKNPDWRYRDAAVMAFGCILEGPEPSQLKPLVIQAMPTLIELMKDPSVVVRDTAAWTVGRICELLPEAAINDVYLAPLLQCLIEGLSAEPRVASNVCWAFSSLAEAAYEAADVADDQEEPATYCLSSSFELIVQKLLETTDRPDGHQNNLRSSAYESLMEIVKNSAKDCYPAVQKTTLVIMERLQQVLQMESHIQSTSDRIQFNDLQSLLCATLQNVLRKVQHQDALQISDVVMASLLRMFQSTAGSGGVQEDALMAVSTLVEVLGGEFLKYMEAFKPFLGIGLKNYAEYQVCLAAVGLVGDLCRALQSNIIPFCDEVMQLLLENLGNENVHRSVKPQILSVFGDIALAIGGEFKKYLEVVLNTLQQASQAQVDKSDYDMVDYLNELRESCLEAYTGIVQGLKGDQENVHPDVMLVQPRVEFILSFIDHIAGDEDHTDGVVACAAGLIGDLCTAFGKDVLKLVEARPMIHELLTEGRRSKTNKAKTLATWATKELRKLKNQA
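FRET biosensor (snurportin 1 IBB flanked by EYFP and cerulean), 50 nM, with compound 5 min, then 0.125 microM importin beta in PBS, 1 mM DTT, 0.02% Tween-20, 0.1% BSA. CFP/YFP ratio read after 45 min at room temperature; pre-read flags interference.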
Active calls of the source: *; ? = inconclusive; . = not tested or not shown. Not all compounds are listed; count on the stated rates, not on these rows.

Structure,miR-21 FLuc,Rango-impB inh,GLA inh pH 4.5,Rango release inh
CC1=C(C#N)C(c2ccc(O)cc2)C2=C(CC(C)(C)CC2=O)N1 (stereo not given),-0.5%,-2.0%,-27.5,1.4%
CC1CC(C)CN(CCCNC(=O)C2CCN(c3nnc(-n4cccc4)s3)CC2)C1 (stereo not given),-6.9%,-1.8%,.,-6.6%
O=[N+]([O-])c1ccccc1C=NNc1ccccc1,.,-0.8%,.,0.9%
CCN(CC)c1ccc(/C=N/NC(=O)CNC(=O)/C=C/c2ccco2)cc1,-8.3%,-2.7%,.,10.9%
O=c1[nH]c(-c2ccco2)nc2sc3c(c12)CCCC3,-57.0%,0.0%,-5.6,8.9%
O=C(C1CC1)N(CCc1ccccc1)Cc1nc2ccccc2c(=O)[nH]1,9.1%,-0.1%,-3.0,-2.6%
CCC(=O)Nc1cccc(-c2nnc(SCC(=O)NCc3ccco3)n2C)c1,-0.9%,-1.9%,-1.4,7.0%
O=C(NCCS(=O)(=O)N1CCCCC1)c1ccc2c(c1)OCO2,.,0.3%,.,16.2%
Cc1ccc(CCNC(=O)C(C)n2nc(C)c3c(C)n(-c4ccccc4)nc3c2=O)cc1 (stereo not given),3.5%,-0.4%,.,10.9%
COc1ccc(Oc2cn[nH]c2-c2ccc(OCC(=O)NN)cc2O)cc1,0.5%,-3.3%,.,10.3%
CCN(C[C@H]1N[C@@](C)(C(=O)OC)[C@H]2C(=O)N(C)C(=O)[C@@H]12)S(=O)(=O)c1ccc(OC(F)(F)F)cc1,.,-1.4%,.,-0.4%
COc1ccccc1NC(=O)C(C)OC(=O)c1cccc(-n2cnnn2)c1 (stereo not given),.,3.5%,.,-5.4%
COc1cc([C@@H]2[C@H]3CN(C)CC=C3C(C#N)=C(N)C2(C#N)C#N)cc2c1OCO2,-7.2%,?,-1.7,?
Cc1onc(-c2c(F)cccc2Cl)c1C(=O)O/N=C(\N)c1ccc([N+](=O)[O-])o1,25.0%,-3.5%,1.8,2.9%
CN(c1ccc(OCC(=O)N2CCOCC2)cc1)S(=O)(=O)c1ccc(F)cc1,2.0%,0.2%,-4.0,22.9%
CC(C)[C@H](NC(=O)N1c2ccccc2NC(=O)[C@@H]1C(C)C)C(=O)N[C@H](Cc1ccccc1)C(=O)O,-4.0%,3.2%,.,33.0%
CCOc1cccc(/C=N/Nc2nc(N3CCCC3)nc(N3CCCC3)n2)c1O,3.1%,?,-4.9,-8.5%
Cc1cc(C(=O)N/N=C/c2ccc([N+](=O)[O-])cc2)c(C)o1,-7.8%,?,8.6,-7.4%
S=C(Nc1ccc(Br)cc1Cl)NN1CCOCC1,-21.6%,0.4%,-0.8,4.8%
O=C(CSc1nnc(Nc2ccccc2F)s1)NC1CCCC1,.,2.4%,.,13.4%

Laid out differently: results already given.
| miR-21 FLuc | Rango-impB inh | GLA inh pH 4.5 | Rango release inh | Molecule |
| --- | --- | --- | --- | --- |
| 3.1% | ? | -4.9 | -8.5% | CCOc1cccc(/C=N/Nc2nc(N3CCCC3)nc(N3CCCC3)n2)c1O |
| -21.6% | 0.4% | -0.8 | 4.8% | S=C(Nc1ccc(Br)cc1Cl)NN1CCOCC1 |

Continued.
Structure,miR-21 FLuc,Rango-impB inh,GLA inh pH 4.5,Rango release inh
CCC1CCCCN1CCCNC(=O)Cn1ncc2c(C)n(Cc3ccccc3Cl)c(C)c2c1=O (stereo not given),-14.3%,-1.4%,.,2.3%
CC(Oc1ccccc1Cl)C(=O)Nc1ccc(S(=O)(=O)N2CCCC2)cc1 (stereo not given),.,-2.6%,.,-9.8%
COc1ccccc1COCC(O)CN1CCCCC1CO (stereo not given),-3.6%,-4.8%,.,27.1%
O=C(CCCC(=O)N1CCN(c2ccc([N+](=O)[O-])cc2)CC1)c1ccccc1,-2.8%,-1.5%,-6.8,-8.4%
CCOc1ccc(S(=O)(=O)N2CCN(C)CC2)c(C)c1C,-7.4%,1.2%,-15.7,1.0%
O=C(Nn1cnc2ccccc2c1=O)c1ccccc1Cl,-32.0%,0.1%,4.6,-7.2%
CCS(=O)(=O)c1nc(S(=O)(=O)c2ccc(Cl)cc2)c(NCCCN2CCCC2=O)s1,0.9%,2.9%,.,-3.4%
Cc1ccc(C)c(NC(=O)CSc2nnc(-c3ccccc3C)o2)c1,-21.1%,7.0%,-1.2,15.4%
COCCCN1C(=O)C(=O)/C(=C(/O)c2ccc(OC)cc2)C12C(=O)N(C)c1ccccc12 (stereo not given),-2.9%,-1.8%,-0.8,2.3%
O=S(=O)(Nc1nc2ccccc2nc1Cl)c1ccc(Br)cc1,17.3%,-0.6%,-9.1,0.3%
Cc1cc(=O)oc2cc(OCc3ccc(C(=O)N4CCN(c5ccccc5)CC4)cc3)ccc12,-3.7%,4.9%,?,17.0%
CC1SC(C)C(=O)N(CC(=O)Nc2ccc3c(c2)OCO3)C1=O (stereo not given),-5.7%,5.4%,7.4,7.2%
Cc1cccc(NC(=O)CSc2nnc(CSc3nc(C)cc(C)n3)o2)c1,-6.2%,-0.2%,1.0,10.9%
CC(C)OCCCn1c(=NC(=O)c2cccs2)c(C#N)cc2c(=O)n3ccccc3nc21,-2.0%,?,?,?
COc1ccc(CC(NC(C)=O)C(=O)NC2CCN(c3ncccc3[N+](=O)[O-])CC2)cc1 (stereo not given),-0.9%,-2.3%,-9.3,3.3%
O=C(Cc1ccc(F)cc1)NC1CCCCCC1,-18.5%,-1.1%,.,-5.5%
COCc1ccc(-c2c(-c3cccc(OC)c3)sc3ccc(OC)cc23)cc1,.,-4.0%,.,20.0%
CCn1c(-c2cc(-c3cc(C)ccc3C)nc3ccccc23)n[nH]c1=S,-4.0%,3.3%,0.2,0.5%
O=[N+]([O-])c1cccc(-c2cn(-c3ccccc3)c(=S)[nH]2)c1,-9.0%,1.2%,-1.1,5.7%
Cc1ccc(-c2nnc(-c3ccccc3)o2)cc1Br,.,0.3%,.,-1.1%
O=C(Nc1ccc2c(c1)OCO2)c1cc2ncc(Br)cn2n1,-11.7%,-3.6%,-9.0,0.3%
CCn1nc(C)c(/C=N/NC(=O)Cn2cncn2)c1C,3.2%,0.5%,0.1,5.4%
CCCCN(C(=O)CSc1nnnn1C)C1CCS(=O)(=O)C1 (stereo not given),.,0.1%,.,0.3%
CC(=O)c1ccc(NC(=O)CCc2nnc3ccc(NCc4ccco4)nn23)cc1,-41.6%,-4.3%,.,1.3%
Cc1c(C(=O)NCCSCc2ccc(F)cc2)cnn1-c1ccc(Cl)cc1,1.5%,0.3%,-11.8,-5.1%
O=C(NCc1ccco1)C(NS(=O)(=O)c1cccc2nsnc12)c1ccccc1 (stereo not given),-5.9%,-0.7%,1.9,5.5%
COc1ccc(NS(=O)(=O)c2cccc(C(=O)NNC(=O)NCCCl)c2)cc1,-1.5%,1.6%,1.7,7.0%
O=C(CCc1nnc(Cc2cccc(C(F)(F)F)c2)o1)NC1CC1,-12.9%,-2.0%,-9.1,1.3%
CCOC(=O)/C(C#N)=C/c1ccc(N2CCN(Cc3ccccc3)CC2)cc1,-10.5%,?,-10.9,?
Cc1ccnc(NC(=O)Cn2c(=O)oc3ccccc32)c1,-22.9%,5.4%,.,-3.1%
Cc1nn(-c2ncc(C(F)(F)F)cc2Cl)c(=O)n1-c1ccc(F)cc1,5.0%,-3.0%,1.3,17.6%
COC(=O)C1=C(C)Nc2nc(-c3ccccc3)nn2C1c1ccc(C)o1 (stereo not given),-10.1%,-5.3%,1.0,-2.2%
CCC(NC(=O)c1ccccc1NC(=O)c1ccccc1)C(=O)NNC(=O)CSc1nc2ccccc2o1 (stereo not given),-10.6%,-1.1%,3.1,-8.4%
Cc1nn(Cc2cccc(C(=O)O)c2)c(C)c1[N+](=O)[O-],-0.3%,-1.8%,-9.2,12.1%
O=C(N/N=C1\CCCc2oc(C(=O)O)cc21)c1ccccc1,-54.6%,?,-0.2,7.5%
COCCCNC(=O)c1ccc(CS(=O)(=O)c2ccc(OC)cc2)o1,-0.6%,-11.3%,-7.0,7.9%
CCOc1ccc(S(=O)(=O)Nc2cccc(C(=O)NCC3(N4CCCCC4)CCCCC3)c2)cc1,.,-3.9%,.,14.5%
Cc1ccc(C)c2[nH]c(=O)c(CCNC(=O)c3ccc4c(c3)OCO4)cc12,-7.1%,-3.3%,-3.6,5.1%
CC1CN(c2ccc([N+](=O)[O-])c(NCCOc3ccc(Cl)cc3)c2)CC(C)N1 (stereo not given),?,4.5%,.,24.4%
Cc1csc(NC(=O)CNS(=O)(=O)c2cccs2)n1,-2.0%,3.2%,-3.9,-4.1%
Cc1ccc(Cl)cc1N1CCN(C(=O)c2noc(C)c2[N+](=O)[O-])CC1,6.2%,0.0%,.,9.4%
COc1ccc(C(=O)NCc2nnc(SCC(=O)N3CCc4ccccc43)n2C2CCCCC2)cc1,-6.6%,-0.6%,-3.5,-6.0%
CC(Cc1cccs1)NC(=S)Nc1ccc(F)cc1 (stereo not given),-2.8%,-1.7%,-7.1,3.7%
Cc1cc(C)cc(OCc2ccc(C(=O)NN)o2)c1,-1.5%,-1.0%,3.8,-2.0%
Cc1ccc2nc(N3C(=O)CNC3=S)sc2c1,-38.7%,-7.2%,-3.5,1.8%
N#C/C(=C/Nc1ccccc1F)S(=O)(=O)c1ccc(Cl)cc1,-1.5%,3.2%,.,-13.0%
CCCCn1c(=O)c(C(=O)N/N=C/c2ccc(F)cc2)c(O)c2ccccc21,-0.4%,.,3.6,.
O=C(CNc1ccc2ccccc2c1)NNC1=NCCC1,-4.9%,1.3%,-7.3,11.7%
O=C(CN1C(=O)C2CCCCC2C1=O)OCC(=O)c1ccc(F)cc1 (stereo not given),.,-0.5%,.,6.2%
CCC(=O)N1CCc2cc(Br)cc(S(=O)(=O)CCC(=O)NCc3ccco3)c21,-2.0%,-0.4%,-1.6,1.7%

More records.
Structure,miR-21 FLuc,Rango-impB inh,GLA inh pH 4.5,Rango release inh
CC1CCCCN1C(=O)CN1CCN(S(=O)(=O)c2ccc(Br)cc2Cl)CC1 (stereo not given),.,0.2%,.,-17.7%
CC(=O)c1ccc(N(C(=O)Cn2nnc3ccccc32)C(C(=O)NCc2ccccc2)c2ccccn2)cc1 (stereo not given),-40.8%,0.6%,-4.3,-3.3%
Cc1ccc(C(=O)N(CN2CCCC2=O)c2ccc(F)cc2)cc1C,-5.7%,-0.8%,-2.1,0.9%
CC(C)(C)c1cc(NC(=O)CCl)n(-c2ccccc2)n1,?,-2.8%,4.5,0.8%
Cc1cc(NC(=O)c2cc3nc4c(c(C(F)(F)F)n3n2)CCc2ccccc2-4)no1,-1.2%,.,3.3,.
C(=N\Nc1nc(N2CCCCCC2)nc(N2CCCCCC2)n1)/c1ccccc1,-3.4%,-1.5%,-18.2,-13.9%
COc1ccc(OCCC(=O)NCCN2CCOCC2)cc1,-0.2%,0.2%,-3.1,-0.9%
COc1ccccc1-c1noc(CCC(=O)Nc2cccc(C(F)(F)F)c2)n1,16.1%,-0.4%,-12.7,0.7%
O=[N+]([O-])c1ccc(C=Nc2ccc(Cl)c([N+](=O)[O-])c2)s1,23.6%,.,4.6,.
CCN(CC(=O)Nc1c(F)cccc1F)C(=O)C1CCN(C(=O)c2ccc(Cl)cc2)CC1,.,0.0%,.,-3.9%
CC1=C(C(=O)Nc2cc(C(=O)NCCC(C)C)ccc2C)SCCO1,-12.3%,-0.3%,.,-7.4%
Cc1ccc(C2=NOC(C)(c3nnc(-c4cccc(Cl)c4)o3)C2)cc1 (stereo not given),.,2.9%,.,-10.2%
CCOc1cc(/C=N\NC(=O)c2ccc(C)nc2)ccc1OC(=O)c1ccc(F)cc1,-0.4%,-0.2%,.,1.0%
CCC(=O)NNC(=O)CCC(=O)Nc1cccc(Cl)c1C,-1.3%,2.6%,-2.6,-2.4%

Compound activity as filed in PubChem BioAssay.
